# Assay outcomes (PubChem BioAssay)
# gsp agonist: agonists of gsp mutant (McCune-Albright syndrome). hit rate 0.13% among 340,000. Potency, µM (top dose mostly 76.9 µM), without a hit: top-dose activation (cAMP increase), actives largely listed as activators. gsp mutant cells, cAMP HTRF, 30 min; control for the full effect not named in the record; active = well fitted activation curve with a large enough effect; inconclusive = small, poorly fitted or top-dose-only effect, or another doubt; inactive = no such curve, though single readings can be large or run the other way; cell line not stated here;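 also: phosphodiesterase inhibitor Ro 20-1724 added with compounds to block cAMP breakdown; potency is read from the fitted curve at half-maximal effect; nearly all actives have a fitted effect of over 60% in size; about a fifth of the inactives were tested at one dose only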
#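 Cells stably selected in G418 were plated at 2000/well, grown 16-24 hr, then given compounds in DMSO with the PDE inhibitor […] (300 uM solution added) for 30 min at 37C; cAMP was read by HTRF.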
# Menin MLL FP FL: displaces fluorescein MLL peptide from human menin; FP activity change, % at 61.4 µM; AID 1766; 290,000 tested, under 10 active; Fluorescence polarization, fluorescein-MLL peptide displacement from menin; inconclusive = falling polarisation curve, or a change in total fluorescence; inactive = total fluorescence flat and polarisation flat or rising; no compound was filed as active; the % refers to the polarisation; negative = inhibition;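 also: % of control where 0% means no effect; inhibitors lower the polarisation; unlabelled MLL peptide was the positive control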
# D2 ag: human D2 receptor agonism in beta-arrestin assay. hit rate 0.084% among 360,000. AID 624465. activation, % (no concentration beside the values). DiscoveRx PathHunter D2 beta-arrestin, luminescence, 90 min; 100% = 57 uM dopamine signal. P14416; in the data active = activation above about 40%; inconclusive = about 15% to 40%; inactive = below about 15%; also: compound concentration not given in the record; the text of the record calls up to 30% inactive
# Target sequence (P14416 whole entry, looked up): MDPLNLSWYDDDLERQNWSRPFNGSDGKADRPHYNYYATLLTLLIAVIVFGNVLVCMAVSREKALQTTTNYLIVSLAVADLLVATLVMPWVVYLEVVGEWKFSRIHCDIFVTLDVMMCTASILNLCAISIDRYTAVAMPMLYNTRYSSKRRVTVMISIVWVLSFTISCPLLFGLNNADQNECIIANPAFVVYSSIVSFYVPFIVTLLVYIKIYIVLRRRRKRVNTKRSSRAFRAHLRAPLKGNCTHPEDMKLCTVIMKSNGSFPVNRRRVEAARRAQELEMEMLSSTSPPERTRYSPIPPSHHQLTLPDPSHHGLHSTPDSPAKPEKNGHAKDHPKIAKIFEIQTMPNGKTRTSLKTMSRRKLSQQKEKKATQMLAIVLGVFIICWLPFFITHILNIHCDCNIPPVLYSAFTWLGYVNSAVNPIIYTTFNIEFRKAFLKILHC
#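 Agonist mode: compounds alone added to overnight-plated D2 PathHunter cells for 90 min at 37 C, with 57 uM final dopamine (EC100) defining full response. Beta-arrestin recruitment detected by chemiluminescent reagent, read after 1 h at ambient temperature.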
# PINK1 modulator: changes PINK1 expression | Potency, µM (series often up to 76.6 µM), for inactives: at the highest dose activation (PINK1 increase), usual class: activators | hit rate 0.2% among 410,000 | PINK1 immunofluorescence, high-content cytometry, 24 h; active = well fitted activation curve with a large enough effect; inconclusive = small, poorly fitted or top-dose-only effect; inactive = flat fitted curve, though single readings scatter; cell line not stated here;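 also: potency is read from the fitted curve at half-maximal effect; % of control where 0% means no effect; nearly all actives have a fitted effect of over 65% in size; a mitochondrial uncoupler was the plate control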
#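 Stable cell line, 250 cells/well, 12 h attachment; compounds pinned at 5 concentrations, 24 h; CCCP control. Fixed with nuclear dye, primary antibodies 12 h at 10 degrees C, secondary plus cell stain; laser-scanning cytometer read.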
# Sfp inh: Sfp phosphopantetheinyl transferase inhibition. Biochemical Sfp PPTase activity, qHTS. AID 1490. Potency, µM, for the others: max response, negative = inhibition, actives largely listed as inhibitors. Q9F4F7. hit rate 3.5% among 310,000; active = well fitted inhibition curve with a large enough effect; inconclusive = small, poorly fitted or top-dose-only effect, or another doubt; inactive = no such curve, though single readings can be large or run the other way;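 also: the enzyme is Sfp with the accession as filed and its product quenches rhodamine fluorescence; potency is read from the fitted curve at half-maximal effect; 0% = enzyme reaction without inhibitor and -100% = no enzyme wells; top concentration of the series not given in the record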
#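 Compounds were incubated with enzyme (final 15 nM) for 15 min at room temperature before substrate addition started the reaction. Fluorescence at 525 nm excitation, 598 nm emission was recorded immediately and after 30 minutes.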
# ClpP mod: qHTS Assay for Activators of ClpP. purified B. subtilis ClpP, FRET peptide cleavage, 20 min. Potency, µM (series often up to 57.5 µM), for inactives: at the highest dose activity change, negative = active. hit rate 1.9% among 340,000. AID 651965, 2013; active = well fitted falling curve with a large enough effect; inconclusive = small, poorly fitted or top-dose-only effect; inactive = no such curve, though single readings can be large or run the other way; also: potency is read from the fitted curve at half-maximal effect; the source files actives as falling curves though it sought activators and does not explain the sign; nearly all actives have a fitted effect of over 65% in size; many hits overshoot -100%
# Target sequence (P80244 whole entry, looked up): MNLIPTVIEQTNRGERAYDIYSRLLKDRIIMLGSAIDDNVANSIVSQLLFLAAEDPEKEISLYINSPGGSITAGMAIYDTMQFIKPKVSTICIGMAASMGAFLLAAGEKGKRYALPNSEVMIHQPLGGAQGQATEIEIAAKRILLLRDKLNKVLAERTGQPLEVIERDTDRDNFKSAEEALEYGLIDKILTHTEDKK
#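 ClpP 10 microg/mL final, pH 8 Tris/KCl buffer with BSA, glycerol, Tween-20; compound pinned in; FRET-FV substrate; RT 20 min; Ex320/Em430; ΔFRET vs ADEP 5.8 microM, DMSO, no enzyme.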
# gsp antag: antagonists of gsp mutant (McCune-Albright syndrome). gsp-mutant cells, cAMP HTRF, 30 min; control for the full effect not named in the record. Potency, µM (titrated, usually from 76.9 µM), inactives show top-dose activity change, negative = inhibition, hits mostly inhibitors. hit rate 0.4% among 340,000. AID 624288; active = falling curve of any shape with a large fitted effect; inconclusive = falling curve, mostly with a smaller effect; inactive = flat or rising curve; cell line not stated here;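 also: intracellular cAMP measured with PDE inhibitor Ro 20-1724 present during compound exposure; potency is read from the fitted curve at half-maximal effect; % is scaled to controls: 0 for no effect and ±100 for the full control effect; nearly all actives have a fitted effect of over 65% in size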
#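 HTRF cAMP read-out (cAMP-d2 plus anti-cAMP antibody-K in lysis buffer, 30 min RT). Before lysis, cells are exposed to compounds with […] for 30 min at 37C in DPBS containing Ca/Mg, BSA and Tween 20.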
# Active calls of the source: *; u = inconclusive; x = not tested or not shown; & = joins results of further samples; [ ] = another dose, or the depositor's remark.
SMILES,gsp agonist,Menin MLL FP FL,D2 ag,PINK1 modulator,Sfp inh,ClpP mod,gsp antag
Cc1ccc(OC(=O)COc2ccccc2C)c(-n2nc3ccccc3n2)c1,-28%,2.4,-0.7,4.6%[38.3 µM],5%,u,-9%
CSc1ccc(CN(C)C(=O)C23CC4CC(CC(Cl)(C4)C2)C3)cc1,1%,-1.5,0.7,0.2%,-4%,x,u
CCOC(=O)C1=C(C)N(C[C@@H]2CC[C@@H](Cc3ccc(-c4ccccc4)cc3)O2)C(=O)NC1c1ccc([N+](=O)[O-])cc1 (stereo partly drawn),x,x,0.1,2.6%,x,-0.9%,-3%
Cc1cc(CNC(=O)COc2ccc([N+](=O)[O-])cc2)c2ccccc2n1,9%[15.4 µM],0.2,4.5,5.2%,8%,x,11%
CCCC1(c2ccccc2)NC(=O)N(CC(=O)NCc2ccc(C)cc2)C1=O (stereo not drawn),4%[15.4 µM],6.0,-0.4,0.7%,5%,-10%,-7%
Cc1ccc(S(=O)(=O)n2c(=O)oc3ccccc32)cc1,-2%,-3.4,-1.3,2.0%,-6%,0.9%,-7%
CC(=O)OCC(=O)[C@@]1(O)[C@H](C)C[C@H]2[C@@H]3CCC4=CC(=O)C=C[C@]4(C)[C@@]3(F)[C@@H](O)C[C@@]21C,x,3.4,-5.6,0.8%,1%,-4.8%,-19%
CC(=O)c1cc2c(cc1NC(=O)CSc1nc3ccccc3o1)OCO2,0%,5.7,-3.3,0.9%,9%,264%,2%
Cc1onc(-c2c(F)cccc2Cl)c1C(=O)OCC(=O)NC(c1ccccc1)c1ccccc1,u,2.7,-0.8,8.2%[38.3 µM],10%,0.4%,-18%
COC(=O)c1ccc(SCC(=O)NC2CCCCC2)c([N+](=O)[O-])c1,-2%[15.4 µM],-2.8,-0.8,2.4%,3%,-1.5%,1%
CC(C)c1ccc(C2NC(=O)CCC2[N+](=O)[O-])cc1 (stereo not drawn),-3%,-0.1,-1.8,0.7%,4%,1.4%,-12%
C=CCN1C(=O)C(O)(CC(=O)c2ccc(OC)cc2OC)c2cc(Br)ccc21 (stereo not drawn),u,-0.5,-2.9,6.6%,-3%,0.8%,14%
Cn1c(NC(=O)COc2ccccc2)cc(=O)n(C)c1=O,17%,-1.6,-3.3,8.5%[38.3 µM],8%,-1.6%,-4%
O=C1N(c2ccccc2)C2CS(=O)(=O)CC2N1c1ccc(Br)cc1 (stereo not drawn),4%,-4.2,-1.9,-0.7%,8%,-2.3%,0%
CN(CC(=O)NCCCc1ccccc1)S(=O)(=O)c1ccc(Br)cc1,9%[15.4 µM],4.7,0.0,0.8%,11%,-3.8%,-12%
Cc1nn(CC(=O)NC(=O)c2ccccc2)c(C)c1[N+](=O)[O-],5%,x,-0.8,0.4%,x,-2.8%,3%
CCOC(=O)C(NC(=O)c1ccccc1Cl)(Nc1ccc(C(F)(F)F)cc1)C(F)(F)F (stereo not drawn),-2%[15.4 µM],-1.7,-3.3,5.4%,17%,0.7%,7%
C=CCNc1nc2c3ccccc3n(C(C)=O)c2s1,-18%,0.1,-0.9,-0.2%,79µM*,1.3%,-10%
Cc1ccc(S(=O)(=O)Nc2ccccc2)cc1[N+](=O)[O-],-28%,x,-0.7,3.3%,x,-11%,-20%
Cc1ccccc1NC(=O)c1sc(Cl)nc1-c1ccccc1,-10%,6.8,-2.1,1.6%,-9%,0.9%,-9%
C=C(C)C(=O)Nc1cccc(C2=NOC3(C2)C[C@H](C(N)=O)N(C(=O)c2ccccc2)C3)c1 (stereo partly drawn),10%,-0.1,-1.6,1.1%,9%,-2.2%,7%
C/C(=N\NC(=O)c1cc2ccccc2cc1O)c1cc2ccccc2o1,6%[15.4 µM],5.7,2.7,u,-1%,x,u
O=C1CCCN1c1ccc(S(=O)(=O)NCCc2ccc(Cl)cc2)cc1,7%,0.3,-4.4,4.7%[38.3 µM],11%,0.1%,-32%
COC(=O)c1ccc(NCCC(=O)O)cc1,8%,3.8,-3.7,-2.0%,8%,-7.7%,0%
CCOc1ccc(C(=O)NCC(=O)NC(C)c2ccc(-n3ccnc3)cc2)cc1OCC (stereo not drawn),-8%,x,-1.1,2.8%,14%,-4.5%,6%
O=C(CN1CCN(CC(=O)Nc2ccc3c(c2)OC2(CCCCC2)O3)CC1)Nc1cccc(F)c1,2%,x,0.6,17%,x,0.8%,-6%
CCN1CCN(Cc2coc3ccc(C)cc3c2=O)CC1,18%,4.0,-1.9,-10%[38.3 µM],-6%,-9.2%,13%
COc1ccc(CC(=O)OCC(=O)Nc2cc(S(=O)(=O)N3CCOCC3)ccc2N2CCCC2)cc1,-26%[15.4 µM],5.7,1.0,1.6%,-5%,x,x
COCC1CCCN(C(=O)c2cc(COc3ccc4ncccc4c3)on2)C1 (stereo not drawn),u,x,2.5,-0.8%,7%,-16%,u
O=Cc1ccc2cccnc2n1,0%[15.4 µM],-0.1,-2.2,-0.8%,16µM*,-1.6%,5%
Cc1ccc(NC(=O)Cn2cnc([N+](=O)[O-])c2)cc1C,8%,-0.9,2.0,0.3%,18%,x,12%
Cc1ccc(NC(=O)C2C3CCCCC32)cc1[N+](=O)[O-] (stereo not drawn),u,-5.8,1.7,3.2%,-8%,0.2%,-15%
COC(=O)c1cccc(NC(=O)/C=C/c2ccc3c(c2)OCO3)c1,-43%[inhibitor],2.4,-0.2,0.1%,20%,-13%,u
Cc1ccc(C2=NS(=O)(=O)N(C)C(C(=O)NCc3ccccc3)=C2)cc1,u,0.2,-4.3,0.2%,-4%,-2.6%,-9%
CCOc1ccccc1NC(=O)NC(=O)N(C)S(=O)(=O)c1ccc(C)cc1,u,-0.1,-0.2,2.4%,2%,0.5%,10%
CCC1CCCCN1CCCNC(=O)c1cn(C)c2ccc(S(=O)(=O)N3CCOCC3)cc2c1=O (stereo not drawn),30%,x,-0.6,0.9%,9%,0.6%,15%
O=C(CNC(=O)COc1ccccc1)NCCc1ccccn1,8%[15.4 µM],-2.4,-3.4,1.0%,11%,-1.4%,10%
Cc1ccsc1-c1n[nH]c(=S)n1CC(C)C,-2%,x,-2.5,0.2%,u,-5.6%,3%
O=C(COc1ccccc1)NCC(=O)N/N=C/c1ccc(Br)cc1,11%,x,-4.7,9.7%,10%,-1.9%,-13%
O=C(O)CCCc1ccccc1,x,0.1&-1.4,-2.4,0.4%,16%&14%,0.7%,-12%
O=C(Nc1ccc(F)c(Cl)c1)c1cc(C2CCCN(C(=O)c3cccs3)C2)on1 (stereo not drawn),x,x,1.6,0.3%,x,-0.8%,x
CC(Sc1nnc(-c2cccs2)n1Cc1ccccc1)C(=O)NCc1ccc2c(c1)OCO2 (stereo not drawn),-36%,-0.3,-0.3,0.2%,6%,-4.5%,-11%
CCCNC(=O)Nc1ccc2c(c1)N(C)C(=O)c1ccccc1S2,-1%,0.9,0.9,-0.5%,-12%,-2.3%,-6%
CCOC(=O)c1c(OCCO)noc1N,1%,1.7,2.8,1.4%,16%,x,-5%
Cc1ccnc(NC(=O)c2cc([N+](=O)[O-])cc([N+](=O)[O-])c2)c1,-43%[inhibitor],0.5,u,-1.0%,13%,-2.6%,11%
CCn1cc(S(=O)(=O)Nc2ncccn2)cn1,-31%,x,-2.4,-0.9%,10%,-3.3%,8%
O=S(=O)(c1cccc2nsnc12)N1CCc2ccccc2C1,13%,2.7,-2.0,11%[38.3 µM],8%,1.9%,-4%
CC1CC(C)CN(S(=O)(=O)c2ccc(NC(=O)C3CSC4(C)CCC(=O)N34)cc2)C1 (stereo not drawn),10%,x,-3.0,3.0%,x,1.4%,-12%

# The list goes on; the last three above are carried over.
SMILES,gsp agonist,Menin MLL FP FL,D2 ag,PINK1 modulator,Sfp inh,ClpP mod,gsp antag
CCn1cc(S(=O)(=O)Nc2ncccn2)cn1,-31%,x,-2.4,-0.9%,10%,-3.3%,8%
O=S(=O)(c1cccc2nsnc12)N1CCc2ccccc2C1,13%,2.7,-2.0,11%[38.3 µM],8%,1.9%,-4%
CC1CC(C)CN(S(=O)(=O)c2ccc(NC(=O)C3CSC4(C)CCC(=O)N34)cc2)C1 (stereo not drawn),10%,x,-3.0,3.0%,x,1.4%,-12%
COc1cc2c(cc1OC)C(NC(=O)C(F)(F)F)C/C2=N\O (stereo not drawn),8%,2.1,-7.3,0.8%,5%,-0.1%,2%
O=C(c1cc(-c2ccc(O)cc2)on1)N1CCN(c2ccc(F)cc2)CC1,-23%,-2.7,7.0,0.7%,-9%,-0.8%,-5%
Cc1cc(C)cc(NS(=O)(=O)c2ccc(Oc3ncc(C(F)(F)F)cc3Cl)cc2)c1,-5%,-1.0,-5.0,-7.1%,u,3.2%,11%
C#Cc1ccc([C@@H]2C=C(C(=O)N3CCN(Cc4ccc5c(c4)OCO5)CC3)O[C@H](OCC)[C@H]2CCCO)cc1,6%,-1.2,8.4,-0.7%,-4%,-4.2%,-5%
COc1cccc(NC(=O)CN(C)C(=O)CC2CCCC2)c1,-2%[15.4 µM],x,-2.9,5.0%,x,x,10%
CCn1cc(CNC(=O)NC2CCCCC2)c(C)n1,0%,3.7,-1.2,-0.6%,-2%,4.6%,11%
O=C(Nc1c(-c2ccccc2)[nH][nH]c1=O)c1ccc(Br)cc1,x,x,-3.5,1.0%,x,-1.5%,x
O=C(CCN1CCc2ccccc2C1)c1ccc2c(c1)OCCO2,14%,-1.5,-2.9,-1.0%,45µM*,-12%,10%
Cc1noc(C)c1S(=O)(=O)N1CCC(C(=O)N2CCN(Cc3ccc4c(c3)OCO4)CC2)CC1,-11%[15.4 µM],-6.5,-3.1,-0.7%,-8%,-2.9%,-1%
O=C1CCCC2=C1C(Cc1ccccc1)C1=C(CCCC1=O)O2,-5%,-3.6,-3.4,3.0%,14%,-1.0%,-9%
CC1CC(C)CN(C(=O)c2cccc(N3C(=O)c4ccccc4C3=O)c2)C1 (stereo not drawn),-30%,x,-2.8,4.0%,x,0.5%,-15%
CCCNC(=O)Cn1c(=O)oc2ccccc21,3%,0.1,-0.7,-1.5%,1%,0.7%,3%
